# D2 agonist: Beta-Arrestin HTS for Positive Allosteric Modulators of the Human D2 Dopamine Receptor: Agonists | DiscoveRx PathHunter D2 beta-arrestin, luminescence, 90 min; 100% = 57 uM dopamine signal | 360,000 tested, 0.084% active | D(2) dopamine receptor (Homo sapiens), P14416 | activation, % (test concentration not listed); in the data active = activation above about 40%; inconclusive = about 15% to 40%; inactive = below about 15%; note: compound concentration not given in the record; the text of the record calls up to 30% inactive
# Target sequence (P14416 whole entry, looked up): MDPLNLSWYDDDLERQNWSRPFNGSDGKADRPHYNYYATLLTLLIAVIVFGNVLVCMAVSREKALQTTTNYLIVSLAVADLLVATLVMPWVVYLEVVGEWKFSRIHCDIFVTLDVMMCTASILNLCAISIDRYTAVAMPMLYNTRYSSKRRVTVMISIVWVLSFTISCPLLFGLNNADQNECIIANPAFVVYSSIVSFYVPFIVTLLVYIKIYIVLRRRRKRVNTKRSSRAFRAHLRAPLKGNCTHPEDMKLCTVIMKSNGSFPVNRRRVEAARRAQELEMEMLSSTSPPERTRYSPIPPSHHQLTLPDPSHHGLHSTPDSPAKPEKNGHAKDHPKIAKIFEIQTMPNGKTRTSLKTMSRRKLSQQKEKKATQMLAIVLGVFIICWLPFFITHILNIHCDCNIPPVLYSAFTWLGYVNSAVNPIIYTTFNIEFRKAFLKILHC
#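 DiscoveRx PathHunter D2 beta-arrestin cells (2,100/well) attached overnight, then compound-stimulated 90 min at 37 C in HBSS/10 mM HEPES/0.1% Tween-20 buffer; beta-galactosidase complementation read by luminescence after 1 h at ambient temperature. Dopamine 57 uM final (EC100) as control.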
# PINK1 expr mod: A Quantitative High throughput Screen to Identify Chemical Modulators of PINK1 Expression; 410,000 tested, 0.2% active; AID 624263, 2012; Potency, µM (series often up to 76.6 µM), without a hit: top-dose activation (PINK1 increase), actives largely listed as activators; PINK1 immunofluorescence, high-content cytometry, 24 h; active = well fitted activation curve with a large enough effect; inconclusive = small, poorly fitted or top-dose-only effect; inactive = flat fitted curve, though single readings scatter; cell line not stated here;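 note: potency is the fitted concentration of half-maximal effect; % of control where 0% means no effect; nearly all actives have a fitted effect of over 65% in size; a mitochondrial uncoupler was the plate control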
#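 Compound titrations (5 concentrations, 24 h) on a stable cell line; DMSO and CCCP controls. Endpoint: fixed-cell PINK1 immunofluorescence with mitochondrial, cell and nuclear markers, scanned by microplate cytometer.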
# Six1-Eya2 blk: qHTS Assay for Inhibitors of the Six1/Eya2 Interaction. Homeobox protein SIX1 (Homo sapiens) + Protein phosphatase EYA2 (Homo sapiens), …. AlphaScreen GST-Six1/His-Eya2 binding, biochemical; stronger effect = lower value; control for the full effect not named in the record. activity change, % (test concentration not listed). 360,000 tested, 0.56% active; in the data active = activity change below about -65%; inconclusive = about -30% to -65%; inactive = above about -30%; note: % is set by controls: 0 for no effect and ±100 for the full control effect; compound concentration not given in the record
#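 Homogeneous AlphaScreen proximity assay pairing GST-Six1 with His-tagged Eya2 (added as 5X mix: 250 nM and 500 nM) in 50 mM Tris pH 8.0, 300 mM NaCl, 1 mM TCEP. Glutathione donor and nickel acceptor beads; 1 h, 37 °C, dark.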
# D2 PAM: Beta-Arrestin HTS for Positive Allosteric Modulators of the Human D2 Dopamine Receptor: Potentiators | DiscoveRx D2 beta-arrestin cells, luminescence, 90 min; 100% = 57 uM dopamine signal | potentiation, % (concentration not given with the values) | 360,000 tested, 0.23% active; active = potentiation of 50% or more; inconclusive = 30% to 50%; inactive = 30% or less;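 note: compound concentration not given in the record; tested on top of an EC20 dose of dopamine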
#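 PathHunter beta-arrestin assay in DiscoveRx D2 cells. Compounds were added with an EC20 of dopamine (50 nM final) for 90 min at 37 deg C. Luminescence was read 1 h after detection reagent, with 57 uM dopamine as the EC100 control.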
# TRPML1 blocker: qHTS for Inhibitors of the Human Mucolipin Transient Receptor Potential 1 (TRPML1); Mucolipin-1 (Homo sapiens), Q9GZU1; TRPML1-inducible cells, Ca2+ dye fluorescence, FDSS; stronger effect = lower value; inhibition of EC80 agonist-evoked calcium signal; activity change, negative = inhibition, % (no concentration beside the values); 390,000 tested, 0.02% active; AID 624415, 2012; in the data active means activity change below about -50%; inconclusive means about -30% to -50%; inactive means above about -30%;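 note: stimulus is agonist 54-4 at its EC80 concentration; % is set by controls: 0 for no effect and ±100 for the full control effect; compound concentration not given in the record; the text of the record puts the active cut at -80%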
# Target sequence (Q9GZU1 whole entry, looked up): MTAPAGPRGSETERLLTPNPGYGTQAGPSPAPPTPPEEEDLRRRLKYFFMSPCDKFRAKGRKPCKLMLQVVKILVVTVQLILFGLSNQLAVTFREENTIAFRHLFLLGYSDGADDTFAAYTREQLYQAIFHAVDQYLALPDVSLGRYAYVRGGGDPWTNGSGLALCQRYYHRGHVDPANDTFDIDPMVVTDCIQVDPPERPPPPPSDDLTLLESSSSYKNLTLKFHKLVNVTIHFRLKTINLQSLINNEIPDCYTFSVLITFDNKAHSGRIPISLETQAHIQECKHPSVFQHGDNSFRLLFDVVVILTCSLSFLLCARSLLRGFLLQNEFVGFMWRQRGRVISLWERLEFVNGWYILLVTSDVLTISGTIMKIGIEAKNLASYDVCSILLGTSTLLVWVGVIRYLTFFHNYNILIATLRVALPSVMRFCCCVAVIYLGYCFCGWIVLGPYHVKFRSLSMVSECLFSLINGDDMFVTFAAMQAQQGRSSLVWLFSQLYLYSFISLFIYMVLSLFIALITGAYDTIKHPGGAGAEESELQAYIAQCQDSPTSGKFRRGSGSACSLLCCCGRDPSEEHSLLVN
#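 Calcium fluorescence in TRPML1-DL cells induced overnight with Tet: a 110 s read after compound pin addition, then a 110 s antagonist read after challenge with 54-4 at 4 uM final (EC80).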
# TRPML1 ag: qHTS for Agonists of the Human Mucolipin Transient Receptor Potential 1 (TRPML1); Mucolipin-1 (Homo sapiens), Q9GZU1; TRPML1-expressing cells, Ca2+ dye fluorescence, FDSS; host cell line not named in the record; reference of the full effect not given here; activation, % (test concentration not listed); 410,000 tested, 0.12% active; AID 624414, 2012; in the data active = activation above about 50%; inconclusive = about 30% to 50%; inactive = below about 30%; note: 0% is about no effect; the text of the record puts the active cut at 80%
#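 Agonist activity was taken from a 110 s kinetic Ca2+ dye read on the FDSS after pinning compounds onto TRPML1-DL cells. The cells were seeded at 1,500/well with Tet inducer, incubated about 16 h, then dye-loaded at room temperature.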
# Active calls of the source: *; ? = inconclusive; . = not tested or not shown; & = joins results of further samples; [ ] = dose if it differs, or a comment.
SMILES,D2 agonist,PINK1 expr mod,Six1-Eya2 blk,D2 PAM,TRPML1 blocker,TRPML1 ag
Cc1ccccc1C(=O)N1CCC(C(=O)NCc2ccc(Cl)cc2)CC1,2.1,1.0%,-1,-1,-10,0.0
Cc1ccc(C)c(NC(=O)COC(=O)c2ccc(S(=O)(=O)N3CCCC3)cc2)c1,-0.9,-0.5%,11,-13,-6,0.0
c1ccc(Nc2ccccn2)cc1,-3.4,-1.3%,2,-14,10,2.2
CCc1ccc(-c2nc(CS(=O)CC(=O)NCc3ccccc3)c(C)o2)cc1 (configuration not stated),3.7,-1.1%,-1,2,5,-1.0
Cc1c(Cl)cccc1-c1ccc(CNCCCSc2nnnn2C)o1,.,0.3%,.,.,-7,-0.7
Cc1ccc(NC(=O)NCCN2CCCCC2)cc1Cl,-1.9,-0.2%,-1,-10,-1,0.0
COc1ccc(C(=O)NC(=S)Nc2ccc3oc(=O)ccc3c2)cc1OC,-4.0,-0.3%,-14,5,-11,-0.5
Cn1c(-c2ccccc2)c[n+]2c1CCCCC2,-2.9,-0.2%,5,-10,5,-0.7
CCN(CC)CCSc1nc(O)c(C(C)C)c(=O)[nH]1,-4.2,-4.0%,6,-7,-7,0.6
CC(C)(C)c1ccc(C(=O)Nc2nc3nc(-c4ccccc4)cc(=O)n3[nH]2)cc1,.,-0.7%,.,.,-13,1.3
CN(C(=O)CN1CCN(c2cc(-c3ccc(-c4ccccc4)cc3)ncn2)CC1)c1ccccc1,-3.9,13%,-3,-9,.,-0.6
Cc1cccc(OCCNC(=O)c2cncc(Br)c2)c1,-2.7,-0.4%,6,-10,-12,1.0
COc1cc(/C=C2/C(=O)NN(c3ccc(Cl)c(Cl)c3)C2=O)cc([N+](=O)[O-])c1O,-6.5,-0.9%,0,-5,-23,0.7
CCCCN(C)C(=O)c1nc2ccccn2c1CN1CCN(c2cnccn2)CC1,-1.2,2.5%,9,-3,-7,1.3
CCOc1ccc(CC(=O)NCc2ccc3c(c2)CCN3C(=O)c2ccc(F)cc2)cc1OCC,.,3.0%,.,.,22,1.9
CN(Cc1ccc(OCC(O)CN(C)Cc2ccccc2)cc1)Cc1nccn1C (configuration not stated),-3.4,-0.6%,0,-18,-11,0.8
C#CCN1C(=O)C(O)(CC(=O)c2cccc(OC)c2)c2ccccc21 (configuration not stated),-3.4,5.0%,-2,-10,7,-0.8
Cc1ccc(-c2csc(NC(=O)c3cnccn3)n2)cc1C,-2.0,0.5%,2,-1,-9,-0.3
Cc1ccc(NC(=S)NNC(=O)c2nn(C)c(C)c2Cl)cc1,-14,-0.3%,-30,-24,-10,0.1
Cc1ccc(CN=c2c([N+](=O)[O-])nn(-c3cccc(Cl)c3)n2O)cc1,?,3.0%,-27,?,44,-0.1
CCN(CC)S(=O)(=O)c1cccc(C(=O)NCC2CCCCC2)c1,2.4,0.3%,5,0,-14,-2.0
CCOc1ccc(S(=O)(=O)N2CCOCC2)cc1NC(=O)c1ccc(N2CCCC2=O)cc1,1.1,9.3%,-3,0,7,0.3
Cc1cccc(C)c1OCC(=O)N(Cc1ccc(N(C)C)cc1)C1CCS(=O)(=O)C1 (configuration not stated),-4.4,0.1%,-7,-4,17,3.6
COc1ccccc1-n1cnc2cc(C(=O)N3CCOCC3)ccc21,1.4,-1.3%,3,-22,-8,-0.6
CCOc1ccccc1CNC(=O)C1CCN(C(=O)N2CC(CC)Oc3ccc(C)cc32)CC1 (configuration not stated),.,0.0%,.,.,-13,2.3
CON1C(=O)CN(C(C)=O)C1c1ccc(Cl)cc1Cl (configuration not stated),0.6,.,0,-12,3,-0.2
Brc1cc2c(cc1Cn1c(-c3cncs3)nc3ccccc31)OCO2,1.6,6.2%,10,-5,2,2.0
Cc1cc2c(cc1C)-n1c(-c3ccccc3)c3c(=O)n(C)c(=O)n(C)c3c1C(c1ccco1)N2 (configuration not stated),.,1.2%,.,.,-12,-0.6
O=C(Nc1ccccc1C(=O)O)c1cccc(S(=O)(=O)Nc2ccc(Br)cc2)c1,-2.5,1.0%,-3,?,.,.
O=c1[nH]c2cc3c(cc2cc1C(c1nnnn1C1CCCC1)N1CCSCC1)OCCO3 (configuration not stated),-4.7,-1.2%,1,10,5,-0.1
CC(C)(C)c1ccc(S(=O)(=O)Nc2ccc3c(c2)COC3=O)cc1,-3.3,-2.1%,-14,1,12,0.8
CCOC(=O)C1CCCN(c2nc3c(C)cccn3c(=O)c2/C=C(\C#N)C(=O)NCc2ccco2)C1 (configuration not stated),-2.5,-0.8%,-5,-14,21,-1.2
Cc1ncc(CO)c(/C=N/NC(=S)Nc2ccc(C(C)C)cc2)c1O,-0.9,0.0%,-28,-23,50,0.5
C=CCN1C(=O)C(Cc2cccc(C)c2)SC1=Nc1ccc(C(=O)O)cc1 (configuration not stated),-1.2,-1.4%[38.3 µM],1,-6,-3,0.3
COc1cc(NC(=O)c2nccn2C)cc(C(=O)Nc2cccc(C(F)(F)F)c2)c1,-2.7&-1.3,7.5%&12%,0&1,-5&-10,5&-10,0.8&0.2
N#Cc1cccc(C(=O)Nc2ccc(S(=O)(=O)Nc3nccs3)cc2)c1,-4.1,0.4%,-14,-2,-14,2.2
CS(=O)(=O)c1ccc(C(=O)OCC(=O)NC(=O)C2CCCCC2)cc1[N+](=O)[O-],?,-2.9%,-21,-4,4,-0.1
CC(C)(C)[C@H]1COC(=O)CC/C=C\C[C@H](CC(=O)N(CCO)Cc2ccccc2)C(=O)N1,-1.8,-0.4%,0,-18,-5,-0.1
CCOC(=O)c1c(C)nc2c(c1-c1ccc(OC)c(OC)c1)C(=O)c1ccccc1-2,-1.5,.,-11,5,-4,0.0
Cc1ccc(S(=O)(=O)N(C)C[C@H]2OCCCC[C@@H](C)Oc3ccc(N(C)C)cc3C(=O)N([C@H](C)CO)C[C@@H]2C)cc1,-5.1,-0.9%,-9,-2,0,0.3

# Record cards, as listed above. Values in the order: D2 agonist	PINK1 expr mod	Six1-Eya2 blk	D2 PAM	TRPML1 blocker	TRPML1 ag
# Cc1ccc(CN=c2c([N+](=O)[O-])nn(-c3cccc(Cl)c3)n2O)cc1 as listed: ?	3.0%	-27	?	44	-0.1
# O=C(Nc1ccccc1C(=O)O)c1cccc(S(=O)(=O)Nc2ccc(Br)cc2)c1 as listed: -2.5	1.0%	-3	?	.	.
# CN(C(=O)CN1CCN(c2cc(-c3ccc(-c4ccccc4)cc3)ncn2)CC1)c1ccccc1 as listed: -3.9	13%	-3	-9	.	-0.6
# CCOC(=O)c1c(C)nc2c(c1-c1ccc(OC)c(OC)c1)C(=O)c1ccccc1-2 as listed: -1.5	.	-11	5	-4	0.0

# The listing continues:
SMILES,D2 agonist,PINK1 expr mod,Six1-Eya2 blk,D2 PAM,TRPML1 blocker,TRPML1 ag
COCCN(Cc1ccccc1)C(=S)Nc1ccc(OC(F)F)cc1,-4.0,0.6%,-2,-9,10,1.4
CN(CC(=O)Nc1ccccc1C(F)(F)F)C(=O)CN1C(=O)C2CCCCC2C1=O (configuration not stated),-4.0,0.0%,-1,-6,-12,-0.4
Cc1ccc(-n2c(C)n[nH]c2=S)cc1C,2.4,0.6%,2,3,-1,0.7
COc1ccc(N2C(=O)C3CCCN3C2c2ccc(C)o2)cc1Cl (configuration not stated),-1.6,-2.9%,-1,-5,-7,-0.8
COc1cccc(OCc2nnc(SCc3cc(=O)[nH]c4ccccc34)o2)c1,0.7,2.1%,-14,1,21,-0.8
COc1ccc(C(=O)N2CCC(C(=O)N3CCN(Cc4ccccc4)CC3)CC2)cc1,-3.9,0.9%,0,-7,-1,-0.3
CN(C)CCNC=C(C(=O)Nc1ccc(Cl)cc1Cl)C(=O)Nc1ccc(Cl)cc1Cl,2.0,-3.0%,-1,-9,-4,-1.0
CCOCCCNC(=O)c1ccc(-n2c(-c3ccccc3)cc3c2CCCCC3)cc1,.,-0.3%,.,.,11,1.4
CCn1c(C)cs/c1=N\C(=S)Nc1ccccc1C,-1.5,1.3%,0,-16,-4,0.9
Cc1ccc(NC(=O)CCc2nnc3ccc(N4CCC(C)CC4)nn23)nc1,-3.1,-0.4%,2,-9,-13,-0.5
Cc1cc([N+](=O)[O-])ccc1NC(=O)c1cncc(Br)c1,-5.7,0.8%,-1,4,-20,-1.3
CC(C)CC1c2[nH]c3ccccc3c2CCN1C(=O)C1CCOCC1 (configuration not stated),0.2,-0.9%,-9,-7,-9,1.5
O=C(Cn1cc(SCc2ccc(Br)cc2)c2ccccc21)N1CCCCC1,.,1.7%,.,.,-4,0.1
O=C(NCCO)C(=O)NCC1OCCCN1S(=O)(=O)c1ccc2c(c1)OCCO2 (configuration not stated),0.1,2.7%,-2,1,-7,0.0
OC[C@@H]1CN(Cc2ccccc2)C[C@H](n2ccc3c(N4CCCC4)ncnc32)O1,4.6,2.4%,0,-3,.,-0.2
COc1cc(C=Nc2cccc([N+](=O)[O-])c2C)ccc1OC(C)=O,-4.3,-0.4%,2,-16,-3,-0.4
Cc1cccc(OCC(=O)NC2CCCc3ccccc32)c1C (configuration not stated),-0.1,1.1%,7,-5,-17,2.6
O=C(c1ccccc1)N1CCN(C(=O)c2ccccc2)c2ccccc21,-4.8,-1.0%,2,-5,-17,1.2
NC(=O)c1ccc(NC(=O)CN2CCN(c3ccccc3)CC2)cc1,15,0.0%,-5,-15,2,-0.7
O=Cc1cccn1-c1cccnc1,0.3,-0.5%,1,-5,-9,0.5
COc1cc2c(cc1OC)C(CC(=O)O)N(C(=O)Nc1cc(OC)c(OC)c(OC)c1)CC2 (configuration not stated),.,1.3%,.,.,21,0.6
O=c1ccn(-c2cccc(C(F)(F)F)c2)nc1-c1ccn(-c2ccccc2)n1,-1.4,1.8%,-3,1,-3,-0.3
O=C(CN1c2ccccc2Sc2ccccc21)N/N=C/c1ccc([N+](=O)[O-])cc1,9.0,0.8%,?,12,-23,-0.1
CCc1c(C)nc2ncnn2c1N1CCCC(C(=O)Nc2cc(F)ccc2C)C1 (configuration not stated),-2.8,-1.0%,9,-28,-8,2.0
O=C1C=C(N2CCOCC2)c2cccc3cccc1c23,-7.8,1.0%,0,-20,14,0.0
CCCCOc1ccc(C2C(=O)N(C3CCCCC3)CC(=O)N2C2CCCCC2)cc1 (configuration not stated),.,1.1%,.,.,-10,0.7
OCc1ccccc1N=Cc1cccnc1,0.0,0.8%,4,-5,-1,-0.3

# Source: PubChem BioAssay (National Center for Advancing Translational Sciences (NCATS))
